High-throughput results (PubChem BioAssay)
MARV entry inh: qHTS for Inhibitors of binding or entry into cells for Marburg Virus; Marburg virus pseudotype entry/binding inhibition, cell-based; control for the full effect not named in the record; many of its hits are not listed in these tables; Potency, µM (top dose mostly 49.2 µM), inactives show at the highest dose activity change, negative = inhibition, actives largely listed as inhibitors; 18,000 tested, 6.5% active; AID 720532, 2013; active means well fitted inhibition curve with a large enough effect; inconclusive means small, poorly fitted or top-dose-only effect; inactive means no such curve, though single readings can be large or run the other way; tested in HEK293 cells; also: luciferase read-out
Lassa entry: qHTS for Inhibitors of binding or entry into cells for Lassa Virus | Lassa virus pseudotyped entry inhibition, cell-based qHTS; control for the full effect not named in the record; many of its hits are not listed in these tables | Potency, µM (doses to about 49.2 µM), without a hit: at the highest dose activity change, negative = inhibition, most hits filed as inhibitors | 18,000 tested, 4.1% active | AID 720533, 2013; active = well fitted inhibition curve with a large enough effect; inconclusive = small, poorly fitted or top-dose-only effect; inactive = no such curve, though single readings can be large or run the other way; tested in HEK293 cells; also: luciferase read-out
An asterisk follows results filed as active; ? = inconclusive; . = no result given; & = joins results of further samples; [ ] = another dose, or the depositor's remark. % is scaled to controls: 0 for no effect and ±100 for the full control effect; potency is read from the fitted curve at half-maximal effect. This is a subset, so the mix of outcomes need not match the whole.

Each structure is followed by: MARV entry inh	Lassa entry
1. CN1[C@@H](CC(=O)c2ccccc2)CCC[C@@H]1C[C@@H](O)c1ccccc1
    ?	-3%[17.8 µM]
2. C=C1CC2C3CCC4=CC(=O)C=C[C@]4(C)[C@@]3(F)[C@@H](O)C[C@]2(C)[C@@]1(O)C(=O)COC(C)=O (stereo not given in full)
    19%	-1%
3. CCCCC/C=C\C/C=C\C/C=C\C/C=C\CCCC(=O)N(Cc1ccc(O)c(Cl)c1)Cc1ccc(O)c(Cl)c1
    ?	0.079µM*
4. CC(N)[C@H](O)c1ccccc1 (stereo not given in full)
    -27%	-4%
5. COc1cccc(-c2coc3c(C)c4oc(=O)c(CCC(=O)O)c(C)c4cc23)c1
    2%	-15%
6. Cc1noc(-c2ccc(CSCCC(=O)O)cc2)c1NC(=O)OC(C)c1ccccc1Cl (stereo not given)
    12%	-13%
7. CCC(=O)N[C@@H]1c2ccccc2C2(CCN(Cc3[nH]c4c(Cl)cccc4c3C)CC2)[C@H]1OC
    11µM*	25µM*
8. CCOC(=O)NN=C1C[C@@H](O)[C@@H](O)[C@@H]2[C@H]3C(=O)N(c4cccc(Oc5ccccc5)c4)C(=O)[C@@H]3CC[C@@H]12
    37%[activator][8.59 µM]	-10%[8.59 µM]
9. O=C(CSc1ccncc1)NCC1Cc2cccc(-c3cncnc3)c2O1 (stereo not given)
    0%	-10%
10. COCCN(CCOC)Cc1cc(=O)oc2cc(C)c(C)cc12
    ?	-3%
11. CCCCCCCCNC(C)C(O)c1ccc(SC(C)C)cc1 (stereo not given)
    ?	11µM*
12. Cc1c(C(=O)NCCc2ccncc2)cnn1-c1nccc(-c2ccccc2C(F)(F)F)n1
    ?	29%
13. COC(=O)[C@@H](NC(=O)O[C@@H]1C(=O)c2ccc(OC)cc2O[C@H]1c1ccc2c(c1)OCO2)C(C)C
    3%	-2%
14. O=C(NCC1CCC2(CCN(Cc3c[nH]c4ccccc34)CC2)O1)C1CCOCC1 (stereo not given)
    -7%	0%
15. CN1C(=O)COc2c(C(=O)N[C@@H]3CN4CCC3CC4)cc(Cl)cc21
    4%	-10%
16. CCC1CN(CCNC(=O)c2ccc3c(c2)OCCO3)Cc2cc(OC)ccc2O1 (stereo not given)
    -10%	-9%
17. O=C(Oc1cc(OC(=O)c2ccccc2)c2c(c1)OC(c1ccc(OC(=O)c3ccccc3)c(OC(=O)c3ccccc3)c1)[C@@H](OC(=O)c1ccccc1)C2)c1ccccc1 (stereo not given in full)
    6%	-1%
18. O=C(NCCc1ccccc1)c1ccc(-c2ccccc2C(F)(F)F)o1
    14%	40%[activator]
19. CC[C@@]1(O)C(=O)OCc2c1cc1n(c2=O)Cc2cc3c([N+](=O)[O-])cccc3nc2-1
    ?	?
20. COCCNc1cc(-c2ccccc2CN(C)C)ncn1
    -15%	-2%

7 entries out of the list, sorted by number of heavy atoms, descending:
Each structure is followed by: MARV entry inh	Lassa entry
8. CCOC(=O)NN=C1C[C@@H](O)[C@@H](O)[C@@H]2[C@H]3C(=O)N(c4cccc(Oc5ccccc5)c4)C(=O)[C@@H]3CC[C@@H]12
    37%[activator][8.59 µM]	-10%[8.59 µM]
7. CCC(=O)N[C@@H]1c2ccccc2C2(CCN(Cc3[nH]c4c(Cl)cccc4c3C)CC2)[C@H]1OC
    11µM*	25µM*
14. O=C(NCC1CCC2(CCN(Cc3c[nH]c4ccccc34)CC2)O1)C1CCOCC1 (stereo not given)
    -7%	0%
18. O=C(NCCc1ccccc1)c1ccc(-c2ccccc2C(F)(F)F)o1
    14%	40%[activator]
1. CN1[C@@H](CC(=O)c2ccccc2)CCC[C@@H]1C[C@@H](O)c1ccccc1
    ?	-3%[17.8 µM]
10. COCCN(CCOC)Cc1cc(=O)oc2cc(C)c(C)cc12
    ?	-3%
4. CC(N)[C@H](O)c1ccccc1 (stereo not given in full)
    -27%	-4%

Next entries
Each structure is followed by: MARV entry inh	Lassa entry
21. NCCC[C@@H](CC(=O)N[C@@H]1CCNC[C@H]1C(=O)N[C@H](CC(=O)N[C@@H](CCC(=O)O)CC(=O)O)Cc1c[nH]c2ccccc12)NC(=O)C[C@H](Cc1ccccc1)NC(=O)[C@@H]1CCCC[C@H]1N
    -20%	-7%
22. c1ccc2c(c1)OCC(CN1CCCCC1)O2 (stereo not given)
    1%	0%
23. O=C(CCCCC(=O)Nc1c(I)cc(I)c(C(=O)O)c1I)Nc1c(I)cc(I)c(C(=O)O)c1I
    -12%	-12%
24. C=CCC(C)(O)c1cccc(Br)c1 (stereo not given)
    -15%	-10%
25. CCS(=O)(=O)c1ccc(OC)c(Nc2ncc(-c3cccc(-c4ccccc4F)c3)o2)c1
    -74%	.
26. O[C@H]1[C@H]2[C@H](O)CCCN2C[C@H]1O
    -3%	-13%
27. CCN[C@@H](C)Cc1ccccc1
    -10%[107 µM]	-6%[107 µM]
28. COc1ccccc1CNc1ncncc1-c1ccccc1C
    -5%	-5%
29. CCCOC(=O)NCCCN(C)C
    4%	-8%
30. CNC(C)C(O)c1ccc(O)cc1 (stereo not given)
    5%&21%	-9%&1%
31. O=c1cc(CN2CCOCC2)c2ccccc2o1
    15%	9%
32. CS(=O)(=O)Nc1cccc(-c2ccc3ncnc(Nc4ccc(F)cc4)c3c2)c1
    ?	-24%
33. CC(C)(Oc1ccc(CCNC(=O)c2ccc(Cl)cc2)cc1)C(=O)O
    13%[17.8 µM]	-5%[17.8 µM]
34. CC(C)(C)OC(=O)N1CCC(C(=O)Nc2cccc(C(=O)N3CCCC3)c2)CC1
    8%	-21%
35. OC(c1ccc2c(c1)CN(Cc1c[nH]c3ccccc13)CCO2)c1ccccn1 (stereo not given)
    -18%	5%
36. C[C@]12CCC3C(C=CC4=CC(=O)CC[C@]43C)C1CC[C@]2(O)CCC(=O)O (stereo not given in full)
    -1%	5%
37. CC(=O)c1c(O)cccc1O
    -4%	3%
38. CC1(C)CC(=O)C2=C(C1)O[C@@]1(CCCCN3C(=O)c4ccccc4C3=O)Cc3cc(C#N)ccc3[C@H]2O1
    ?	-5%[8.59 µM]
39. COc1cc(/C=C/C(=O)N2CCC=CC2=O)cc(OC)c1OC
    10µM*	?
40. Clc1ccccc1Cl
    1%	-27%
41. CCOC(=O)[C@@H]1CSCCS(=O)(=O)N1Cc1ccc(C(F)(F)F)cc1
    -9%	14%
42. C=CCOC(=O)N[C@H](C(C(=O)OC)=C(C)NCc1ccccc1)c1ccc(C)cc1
    47%[activator][8.59 µM]	.
43. COc1ccc(CN(C2CCCC2)S(=O)(=O)c2cc(Br)ccc2Br)c(OC)c1
    ?	-12%
44. NCC(N)C(=O)c1ccccc1 (stereo not given)
    ?	-2%
45. Cc1ncc2c(c1CNC(=O)c1ccc3c(c1)OCO3)CCN(C(=O)/C=C/c1ccc(Cl)cc1)C2
    1%	-8%
46. CNc1ncnc2ccc(-c3cccc(NS(C)(=O)=O)c3)cc12
    5%	-5%
47. CC(=O)c1c(O)cc(O)cc1O
    10%	-16%
48. COC(=O)N[C@@H](c1cccc(F)c1)[C@@H](C)[N+](=O)[O-]
    2%	-6%
49. Cc1oc(-c2ccccc2NC(=O)C2CCCO2)nc1CNC(=O)c1[nH]c2c(C)ccc(C)c2c1C (stereo not given)
    -28%	-11%
50. C=CC1CC2C=CCOP(=S)(O1)O2 (stereo not given)
    -23%	29%
51. O[N+]1=CC=CCC1=S.On1ccccc1=S.[Zn]
    4.5µM*	3.5µM*
52. O=C1c2c(O)cc(O)cc2O[C@H](c2ccc(O)c(O)c2)C1O (stereo not given in full)
    16%	0%
53. COc1c(O)cc2oc3cc(O)c(CC=C(C)C)c(O)c3c(=O)c2c1CC=C(C)C
    ?	?
54. CCCCCCCCCCCCCCCCN
    13%	-24%
55. CC(=O)OCC(=O)[C@@]1(O)CCC2C3CCC4=CC(=O)CC[C@@]4(C)[C@]3(F)C(O)C[C@]21C (stereo not given in full)
    -3%	3%
56. CCCCCC(=O)N1C[C@H](O)[C@@H](n2cc(C3CC3)nn2)C[C@H]1c1ccc(C)cc1
    10%	.
57. O=C(C=Cc1ccccc1)Nc1cccc(C(=O)NCCCCc2ccccc2)c1
    ?	9%
58. Cc1ccc(S(=O)(=O)OC[C@@H]2CN3[C@H](c4ccc(Br)cc4)[C@H](C)CC[C@H]3C(=O)O2)cc1
    ?	13%[8.59 µM]
59. COC1=C(OC)C(=O)C(C/C=C(\C)CC/C=C(\C)CC/C=C(\C)CC/C=C(/C)CC/C=C(\C)CC/C=C(\C)CC/C=C(\C)CC/C=C(\C)CC/C=C(\C)CCC=C(C)C)=C(C)C1=O
    8%	6%
60. Cc1nc2ccc(NC(=O)Nc3ccnc4cccnc34)cc2o1
    ?	?
61. COc1cc(=O)n2c(c1C(=O)N(C)Cc1nccs1)CCN(Cc1cc3ccccc3s1)CC2
    8%	-13%
62. C[C@@H]1C(=O)NC2=Nc3cccc(Cl)c3CN21
    17%	0%
63. CSCC[C@H](N)C(=O)N[C@@H](CO)C(=O)N[C@@H](CCCN=C(N)N)C(=O)N1CCC[C@H]1C(=O)N[C@@H](C)C(=O)N[C@@H](CS)C(=O)N1CCC[C@H]1C(=O)N[C@@H](CC(N)=O)C(=O)N[C@@H](CC(=O)O)C(=O)N[C@@H](CCCCN)C(=O)N[C@@H](Cc1ccc(O)cc1)C(=O)N[C@@H](CCC(=O)O)C(=O)O
    4%	-13%
64. CCc1c(C)[nH]c2c1C(=O)C(CN1CCOCC1)CC2 (stereo not given)
    18%[17.8 µM]	9%[17.8 µM]
65. COc1ccc(C2OCC3(COC(C)=O)C(C)C=C(C)C2C3C)cc1 (stereo not given)
    3%	-5%
66. Nc1nc2ncc(=O)[nH]c2c(=O)[nH]1
    7%	3%
67. CC(=O)OC[C@H]1O[C@H](CC=NOCC[C@@H]2C=C[C@@H](OC(C)=O)[C@@H](COC(C)=O)O2)C=C[C@@H]1OC(C)=O
    10%[8.59 µM]	-1%[8.59 µM]
68. COc1ccc(COC(=O)NN=C2C[C@@H](O)[C@@H](O)[C@@H]3[C@H]4C(=O)N([C@@H](C)c5ccccc5)C(=O)[C@@H]4CC[C@H]23)cc1
    -1%[8.59 µM]	.
69. N#CC(C#N)=NNc1ccc(OC(F)(F)F)cc1
    3.2µM*	1.3µM*
70. N#Cc1cccc(-c2nc(Nc3ccncc3)c3ccccc3n2)c1
    ?	7%
71. CC1(C)Oc2ccc(C#N)cc2[C@@H](OC2=CC(=O)CC2)[C@@H]1O
    13%&-25%	8%&9%
72. CC(=O)OC1C(=O)[C@@]2(C)C(O)CC3OC[C@]3(OC(C)=O)C2C(OC(=O)c2ccccc2)[C@]2(O)CC(OC(=O)C(O)C(NC(=O)c3ccccc3)c3ccccc3)C(C)=C1C2(C)C (stereo not given in full)
    ?	-18%
73. O=C(Nc1ccccc1)c1ccc(Br)o1
    33%[activator]	4%
74. CCOC(=O)N1CCN(Cc2ccc3c(c2)CN(C(=O)c2cc(-c4ccccc4)no2)CCO3)CC1
    ?	?
75. CCOC(=O)N1CCN(Cc2ccc3c(c2)CN(C(=O)c2sc(C)nc2C)CCO3)CC1
    ?	-7%
76. Cc1cc2oc(=O)cc(CN(C)Cc3ccccc3)c2cc1Cl
    32%[activator]	40%[activator]

In the list so far, 4 have two or more sulfur atoms.
Each structure is followed by: MARV entry inh	Lassa entry
41. CCOC(=O)[C@@H]1CSCCS(=O)(=O)N1Cc1ccc(C(F)(F)F)cc1
    -9%	14%
51. O[N+]1=CC=CCC1=S.On1ccccc1=S.[Zn]
    4.5µM*	3.5µM*
61. COc1cc(=O)n2c(c1C(=O)N(C)Cc1nccs1)CCN(Cc1cc3ccccc3s1)CC2
    8%	-13%
63. CSCC[C@H](N)C(=O)N[C@@H](CO)C(=O)N[C@@H](CCCN=C(N)N)C(=O)N1CCC[C@H]1C(=O)N[C@@H](C)C(=O)N[C@@H](CS)C(=O)N1CCC[C@H]1C(=O)N[C@@H](CC(N)=O)C(=O)N[C@@H](CC(=O)O)C(=O)N[C@@H](CCCCN)C(=O)N[C@@H](Cc1ccc(O)cc1)C(=O)N[C@@H](CCC(=O)O)C(=O)O
    4%	-13%
